NPR1 antag: antagonists of human natriuretic peptide receptor Npr1; Potency, µM (top dose mostly 46.3 µM), inactives show top-dose activity change, negative = inhibition, usual class: inhibitors; actives 1.6% (n = 76,000); HEK293 hNpr1 GloSensor cGMP, ANP-stimulated luminescence; P16066; AID 1347048; active = well fitted inhibition curve with a large enough effect; inconclusive = small, poorly fitted or top-dose-only effect; inactive = no such curve, though single readings can be large or run the other way;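 also: nearly all actives have a fitted effect of over 60% in size; nearly all hits also lower the signal before the agonist is added; a reference antagonist and vehicle were the controls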
Target sequence (P16066 whole entry, looked up): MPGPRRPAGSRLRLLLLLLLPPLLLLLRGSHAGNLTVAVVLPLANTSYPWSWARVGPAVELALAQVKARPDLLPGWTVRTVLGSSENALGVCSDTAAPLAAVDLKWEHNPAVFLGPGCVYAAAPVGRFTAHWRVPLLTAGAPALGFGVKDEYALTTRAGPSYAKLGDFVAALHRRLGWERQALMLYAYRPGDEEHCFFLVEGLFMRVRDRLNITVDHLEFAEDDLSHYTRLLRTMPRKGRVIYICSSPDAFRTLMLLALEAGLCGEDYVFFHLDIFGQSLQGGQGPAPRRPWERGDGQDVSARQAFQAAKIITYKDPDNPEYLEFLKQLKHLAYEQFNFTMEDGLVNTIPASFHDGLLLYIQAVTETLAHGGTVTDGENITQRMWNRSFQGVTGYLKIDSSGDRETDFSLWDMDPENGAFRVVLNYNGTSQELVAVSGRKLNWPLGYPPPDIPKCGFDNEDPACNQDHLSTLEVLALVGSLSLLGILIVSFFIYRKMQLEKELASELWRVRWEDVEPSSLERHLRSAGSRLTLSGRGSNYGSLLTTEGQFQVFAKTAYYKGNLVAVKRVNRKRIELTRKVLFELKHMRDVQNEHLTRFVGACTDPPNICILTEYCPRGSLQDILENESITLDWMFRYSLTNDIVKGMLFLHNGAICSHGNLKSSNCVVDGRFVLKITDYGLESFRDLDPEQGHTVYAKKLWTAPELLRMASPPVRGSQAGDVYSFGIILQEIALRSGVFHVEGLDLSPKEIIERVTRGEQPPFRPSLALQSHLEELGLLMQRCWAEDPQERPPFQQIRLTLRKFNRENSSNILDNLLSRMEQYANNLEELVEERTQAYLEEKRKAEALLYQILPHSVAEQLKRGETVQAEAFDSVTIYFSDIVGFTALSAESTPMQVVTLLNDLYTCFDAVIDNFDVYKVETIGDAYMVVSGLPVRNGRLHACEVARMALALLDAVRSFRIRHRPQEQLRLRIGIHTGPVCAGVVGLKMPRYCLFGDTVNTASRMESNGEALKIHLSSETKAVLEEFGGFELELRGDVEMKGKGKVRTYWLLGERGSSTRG
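HEK293 cells stably expressing human Npr1 and cGMP GloSensor pGS-40F, loaded 2 h with 2% GloSensor reagent, given compound 30 min at room temperature. Luminescence read before and 20 min after 0.1 nM hNppA.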
* marks the source's active call; other numbers are inactive results; ? = inconclusive; & = joins results of further samples; [ ] = another dose, or the depositor's remark. % is scaled to controls: 0 for no effect and ±100 for the full control effect; potency is read from the fitted curve at half-maximal effect. Some of the compounds tested; rates above refer to the full screens.

canonical_smiles,NPR1 antag
COc1nccnc1NC1CCN(C(=O)NC2CCCC2)CC1,1%
O=C1CC(c2ccccc2)N(C(=O)CNC(=O)c2cc(-c3ccc(F)cc3)n[nH]2)CCCCCN1 (stereo not drawn),2%
COCC1CCN(c2ncc(C(C)(C)C(=O)O)c(N3CCOCC3)n2)CC1,-1%
COc1cc(OC)cc(C(=O)NC2CCN(c3cc(-c4ccc(F)cc4)[nH]n3)CC2)c1,-22%
Cc1noc([C@@H]2CC(F)(F)CN2C(=O)c2cc(C)oc2C)n1,5%
COC1CN(c2cccc(F)c2)C12CCN(C(=O)CC(C)C)CC2 (stereo not drawn),4%
COc1ccc(C2Cn3nnc(-c4noc(COc5cccc(C)c5)n4)c3CO2)cc1 (stereo not drawn),-1%
C[C@]1(CO)[C@H]2Cc3sc(NC(=O)C4CCC4)nc3[C@@H](CC(=O)NC3CCCC3)[C@]2(C)CC[C@H]1O,0%
c1cncc(-c2n[nH]c(C3CCCCN3)n2)c1 (stereo not drawn),6%
COCc1noc([C@@H]2CN(Cc3cnn(C(C)C)c3)C[C@H]2C(N)=O)n1,-5%
CC1(CCCCc2ccccc2)COc2ccc(C(=O)N3CCNC(=O)C3)cc2N1 (stereo not drawn),-22%[70.6 µM]
CC(C)N1CCN(Cc2ccccc2C#Cc2ccccc2)CC1CCO (stereo not drawn),6%

Other compounds.
canonical_smiles,NPR1 antag
COc1ccccc1NC(=O)N1CCc2cc(OC)c(OC)cc2C1CNC(=O)CC(C)C (stereo not drawn),0%
Cc1ccc(OCC(=O)N2CCOc3ccc(CN4CCc5ccccc5C4)cc3C2)cc1,-24%
Cc1ccc(C(=O)NC2CCN(c3cnn(Cc4ccccc4)c(=O)c3)CC2)s1,-14%
CN(C)[S+](=O)([O-])c1ccc2c(c1)OCCN(Cc1ccsc1)C2,-14%[70.6 µM]
COc1ccc(CCC(=O)N2CCCN(c3cc(-c4ccc(Br)cc4)[nH]n3)CC2)cc1,?
COCCC1(NC(=O)c2ccccc2)CCN(Cc2ccc(F)cc2F)CC1,-13%
O=C(CCC1CCN(C(=O)c2ccccc2)CC1)NCc1cccc(C(F)(F)F)c1,1%
O=C(NCc1ccc(C(F)(F)F)cc1)C1CCCN(c2nc3ncccc3o2)C1 (stereo not drawn),8%
O=C(CCN1CCCC1=O)NC1CCCN(CCCc2ccccc2)C1 (stereo not drawn),-1%
CN1C[C@@H](NC(=O)c2cccs2)C[C@H]1c1nc(-c2ccccn2)no1,6%[70.6 µM]
CCOc1ccc(N(CC)C(=O)c2ccc3c(c2)N(S(C)(=O)=O)CC3)cc1,-17%
COc1ccc(-c2ccc3nc(-c4ccc(F)cc4F)oc3c2)c(OC)c1OC,-1%

Further results:
canonical_smiles,NPR1 antag
c1cc(-c2cc(-c3ccncc3)c3cncn3c2)c2[nH]ccc2c1,-24%[70.6 µM]
Cc1nc(CCNC(=O)C2NCCc3[nH]cnc32)nc2c1CCCC2 (stereo not drawn),-1%
COCCn1nc2n(c1=O)CCN(Cc1ccc3cc[nH]c3c1)CC2,5%
Cc1nc(CN2CCOC3(CCN([S+](=O)([O-])c4ccccc4C)CC3)C2=O)cs1,-11%[70.6 µM]
CCC(=O)N(C1CCOCC1)C1CCN(S(=O)(=O)c2cccc(C)c2)CC1,-2%
CCC(C(=O)NCc1c(C)ncc2c1CCNC2)n1cccn1 (stereo not drawn),0%
O=C(Cn1cccc1-c1nc(-c2ccc(F)cc2)no1)NCCc1ccc(Cl)cc1,2%
O=C(C1C2C(=O)N(C3CCCCCC3)C[C@@]23C=C[C@@H]1O3)N1C[C@@H]2[C@H](C1)[C@H]1CC[C@@H]2O1 (stereo partly drawn),-2%
COc1ccc2oc(CNC(=O)c3cc(CC(C)C)nn3C)nc2c1,13µM*
O=C(CN1C(=O)NC(c2ccccc2Cl)C2=C1COC2=O)Nc1ccc(Cl)cc1 (stereo not drawn),-5%
COc1cccc(CC(=O)N[C@H](C)c2onc(-c3ccc(F)cc3)c2C(=O)O)c1,1%[70.6 µM]
O=C(NC1CCN(c2cc(-c3cccs3)[nH]n2)CC1)c1cccc(Cl)c1,0%

(list continues)
canonical_smiles,NPR1 antag
Cc1ccc(F)c(OCC(=O)c2ccc3c(c2)N(CCCC(=O)N2CCOCC2)C(=O)CO3)c1,-8%
COCC(=O)N1CCCC(C(=O)N2CCN(c3ccccc3OC)CC2)CCNC(=O)CC1 (stereo not drawn),-2%
COc1ccc(N2CC(C(=O)NCCOc3ccccc3)NC2=O)cc1 (stereo not drawn),10%
O=C(NCc1ccc(F)cc1)N1CCC2(CC1)CC(OCC1CC1)CCO2 (stereo not drawn),2%
CN(C)C[C@@H]1CN(S(C)(=O)=O)C[C@H]1NC(=O)CCC1CCCC1,3%
Cn1ccnc1CN1CCN(C(=O)C2(Cn3ccnc3)CC2)CC1,3%
O=C1CCNCCCC(CO)CCN1 (stereo not drawn),-1%
COCCC(=O)N1CCC2(CC1)C(OC)CN2c1cccc(F)c1 (stereo not drawn),1%
CC(=O)Nc1ccc(CN2CCC3(CC(Cc4ccccc4)=NO3)C2)cc1 (stereo not drawn),-3%
COCCN1CCC(N2CCN(S(=O)(=O)Cc3ccc(F)cc3Cl)CC2)C1=O (stereo not drawn),1%
COc1ccccc1Cn1ccn2nc3c(c2c1=O)CCCC3,-4%
COc1ccccc1NC(=O)N1CCCC1c1nncn1-c1ccccc1 (stereo not drawn),-1%

(further entries)
canonical_smiles,NPR1 antag
O=C(Nc1cnc(-c2cccnc2)nc1)C1CCCC1,-11%
CCc1noc(-c2cn(C3CCN(C(=O)c4cccc(F)c4)C3)nn2)n1 (stereo not drawn),-16%
Cc1ccc(C(=O)N2CCN(Cc3ccc(=O)n(C)c3)CC2)cc1F,0%
CN(C)c1ccc(-c2nnc([C@H]3CCN(C(=O)CCC(=O)O)C3)o2)cc1,2%[70.6 µM]
COc1ccc(-c2cc(N3CCCN(C(=O)c4cccc(Br)c4)CC3)n[nH]2)cc1,?
CN1[C@@H](CCC(=O)N2CCN(c3ccccn3)CC2)CNC(=O)[C@@H]2[C@H]1CCN2Cc1ccc(O)cc1,-5%
CN1CCC(O)(C(=O)N2C[C@@H](C(=O)O)[C@H](c3ccc4c(c3)OCO4)C2)CC1,10%
O=C(NCCc1ccccc1)N1CCC(OC2CCN(Cc3ccccc3)CC2)CC1,10%
Cn1cccc(C(=O)N2C[C@@H](CN3CCOCC3)C[C@H](CO)C2)c1=O,10%
CC(C)CNC(=O)N1CC(c2noc(C3CCCN3CC3CC3)n2)C1 (stereo not drawn),-1%
Cc1cccc2c1nc1n2[C@@H](CNS(=O)(=O)Cc2ccccc2)COC1,35µM*
Cc1ccc(C(=O)N[C@@H]2CN(C)C[C@H]2CN(C)C)c(C)c1,4%

Continued:
canonical_smiles,NPR1 antag
O=C(c1ccccc1F)N1CCn2c(nn(-c3ccc(F)cc3)c2=O)C1,7%
O=C1c2cccn2CC(CNS(=O)(=O)Cc2ccccc2)N1Cc1ccccc1 (stereo not drawn),-18%
C#CCNC(=O)C[C@@H]1C[C@@H](C(C)C)[C@H](CNS(=O)(=O)c2cccc(C#N)c2)C=C1C,-14%[70.6 µM]
CC(C)C(=O)N1CC(Oc2ccccc2-c2nc(C3CC3)no2)C1,7%
COc1cccc(C2Cn3nnc(-c4nc(-c5ccc(C)cc5)no4)c3CO2)c1 (stereo not drawn),-9%
COCC1CN(C(C)=O)CC12CCN(Cc1ccc(F)cc1)CC2 (stereo not drawn),-1%
O=C1NCCCCCCN(C(=O)c2ccsc2)[C@H]2CCC[C@@H]12,0%
C=CCNC(=O)[C@@H]1Cc2cn(CC#CC)c3cccc(c23)[C@H](CC(C)C)N1,0%[70.6 µM]
COc1ccc2ccc(OCc3nc(C(=O)N4CCCC(C(N)=O)C4)co3)cc2c1 (stereo not drawn),11µM*
CCCCC(=O)Nc1cc(NC(=O)C(C)NS(C)(=O)=O)ccc1OC (stereo not drawn),10%
Cc1noc(C)c1S(=O)(=O)N1CCCC(CCc2ccc(F)c(F)c2)C1 (stereo not drawn),-15%
CCC(=O)N1CCc2ccc(C(=O)N3CCCCC3)cc21,6%

Remaining list, next part.
canonical_smiles,NPR1 antag
Cc1ccc2c(n1)N(C)[C@H](CO)CCN(Cc1ccc(Cl)cc1)C2,-2%[70.6 µM]
O=C1Nc2ccccc2OCC12CCN(Cc1ccncc1)CC2,-11%[70.6 µM]
CN(C(=O)NCc1ccco1)C1CCc2nn(C)c(=O)n2CC1 (stereo not drawn),0%
O=C(NC1CCCCC1)N1Cc2[nH]cnc2C[C@H]1c1nc(-c2ccc(Cl)cc2)no1,-5%[70.6 µM]
C#CCN(Cc1nc(-c2ccc(OC)c(C)c2OC)oc1C)C1CCCCC1,-5%
CC[C@@]1(O)CCN(CC(=O)NCc2cc(C(=O)O)ccc2C)C[C@H]1O,1%
COCCNc1ncc(-c2cccc(F)c2)c2c1OCC2,-1%[70.6 µM]
Cc1ccc(Cn2c(C3CCN(C(=O)c4cccc(F)c4)CC3)n[nH]c2=O)cc1,-5%
CCOc1ccccc1C1NC(=O)N(CC(=O)Nc2cccc(SC)c2)C2=C1C(=O)OC2 (stereo not drawn),-22%
O=C(C[C@H]1NC(=O)c2ccccc2NC1=O)Nc1cccc2ncccc12,0%
COC(=O)c1ccc(CN2C(=O)[C@@H]3C[C@@H](O)CN3C3(CN(Cc4ccc(OC)c5ccccc45)C3)C2=O)cc1,-9%
CCCc1cncnc1N1CCN(C2CCN(Cc3ccco3)CC2)CC1,5%

The results go on:
canonical_smiles,NPR1 antag
O=C1NCCCCCCN(C(=O)COc2ccc(F)cc2)[C@H]2CCC[C@@H]12,-6%
CCOc1ccccc1C(=O)N1CCN(c2cc(-c3ccc(F)cc3)[nH]n2)CC1,-11%
CC#CCn1cc2c3c(cccc31)[C@H](CC(C)C)N[C@H](C(=O)N1CCOCC1)C2,7%[70.6 µM]
CCN1CCN(c2ccc(-c3cccc(N)c3)nn2)CC1,?
O=C(CCc1nnn2c1CN(C(=O)Nc1ccc3c(c1)OCCO3)CC2)N1CCCC1,-17%
CCC(CC)C(=O)N1CCC(N2CCCC(C(=O)NCc3ccccc3)C2)CC1 (stereo not drawn),-1%
O=C(c1cccc(Cl)c1)N1CCN(c2cc(-c3ccc(Cl)cc3)[nH]n2)CC1,?
O=C(O)c1cc(-c2ccc3c(c2)OCCO3)cc(S(=O)(=O)N2CCOCC2)c1,2%
COCCCNC(=O)C(NC(=O)c1ccccc1)C1CCN(C(=O)c2ccc(C)cc2)CC1 (stereo not drawn),3%
CC(=O)N1CCN(C(=O)C[C@@H]2c3nc(-c4ccsc4)sc3C[C@@H]3[C@](C)(CO)[C@H](O)CC[C@]32C)CC1,6%
COc1cccc(C(=O)N2CCc3nc(C4CC4)nc(-c4ccc(Cl)cc4)c3C2)c1,4%
Cc1nnc(-c2cc(N3CCN(c4ccccn4)CC3)ccn2)n1C1CCCCC1,2%[70.6 µM]

Next part
canonical_smiles,NPR1 antag
N#Cc1cccc(NC(=O)N2Cc3[nH]cnc3C[C@H]2c2nc(-c3cccc([N+](=O)[O-])c3)no2)c1,-15%
Cc1cc(S(=O)(=O)N2C[C@@H](F)C[C@H]2C(=O)N2CCCCC2)ccc1F,-2%
O=C(Nc1ccncn1)[C@@H]1C[C@@H](c2ccc(F)cc2)N(CCOc2ccccc2)C1,?
CN(Cc1ccc(F)cc1)C1CCc2ccccc21 (stereo not drawn),0%&14%[70.6 µM]
OCCC1CN(Cc2cccn2-c2ccccn2)CCN1Cc1cccs1 (stereo not drawn),-1%
O=C(COc1cccc(-c2nnc3n2CCCC3)c1)Nc1ccc(Br)cc1,-21%
Cc1ccc([S+](=O)([O-])N2CCc3nc(C)nc(-c4ccc(Cl)cc4)c3CC2)cc1,1%
COc1ccccc1C(=O)N1CCN2C(=O)N(Cc3cccnc3)C[C@H]2C1,-10%[70.6 µM]
O=C(NCC1CCN(c2cc(-c3ccc(Cl)cc3)[nH]n2)CC1)c1ccc2nc[nH]c2c1,-23%
CC(C)c1ccc(N2C(=O)N[C@@H]3CCN(C(=O)c4ccc(C(C)(C)C)cc4)[C@@H]3C2=O)cc1,-18%[70.6 µM]
COc1cc(C)c2c(c1C)C[C@H](C(C)C(=O)N1CCN(c3ccc(F)cc3)CC1)CC2 (stereo partly drawn),?
CC1(C)C(=O)N(Cc2ccccc2)[C@H]2CN(Cc3ccc(C(=O)O)cc3)C[C@H]2[S+]1(=O)[O-],3%
